HSD17B inh = inhibitors of human HSD17B10 dehydrogenase; Potency, µM (top dose mostly 57.1 µM), inactives show at the highest dose activity change, negative = inhibition, usual class: inhibitors; Q99714; actives 7.6% (n = 75,000); recombinant HSD17B10, NADH fluorescence kinetic; many of its hits are not listed in these tables; active means well fitted inhibition curve with a large enough effect; inconclusive means small, poorly fitted or top-dose-only effect; inactive means no such curve, though single readings can be large or run the other way;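 further: the protocol describes HADH2 (HSD17B10) and not the HSD17B4 of the title; nearly all actives have a fitted effect of over 70% in size; most hits overshoot -100% by far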
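20 nM HADH2, pH 9.0 Tris/Tween; cpd preinc 15 min RT; start w/ 1 mM NAD+ + 90 uM b-hydroxybutyryl-CoA; kinetic fluor ex360/em450 q30s x 4 min; delta last-first.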
Starred values were filed as active, the others as inactive; [ ] = dose if it differs, or a comment. On the % scale 0 is the no-effect control and ±100 the full control effect; potency means the concentration at half of the fitted maximal effect. Not all compounds are listed (hit frequency here may not be typical).

For Cc1ccc(C(=O)NCc2ccc(Cl)c(Cl)c2)o1 the results were HSD17B inh 3.0%.
`CCCCOC(=O)Nc1nc(CC(=O)OCC)cs1` gave HSD17B inh 1.5%.
Cc1cccnc1 was read as HSD17B inh 1.4%.
`O=C(NCc1ccccc1)NC1(C(=O)N2CCN(c3ncccn3)CC2)CCCCC1` gave HSD17B inh 3.3%.
Cc1ccc(S(=O)(=O)NC(CC(=O)NCc2ccco2)c2ccco2)cc1 (stereo not drawn) was read as HSD17B inh -8.1%.
`CSc1nc2c(c(=O)[nH]1)C(c1cccs1)C1=C(CCCC1=O)N2` (stereo not drawn) gave HSD17B inh 31.6µM*.
CC1CCN(C(=O)CN(C2CCCCC2)S(C)(=O)=O)CC1 was read as HSD17B inh -13.9%.
Screening O=C(NCc1ccccn1)c1ccc(N2CCCC2=O)cc1 returned HSD17B inh -2.5%.
`CCOc1cccc(OCCOCCN(C)Cc2ccccc2)c1` gave HSD17B inh 4.1%.
CCOC(=O)CN1CC23C=CC(O2)C(C(=O)Nc2ccc(OC)cc2OC)C3C1=O (stereo not drawn) was read as HSD17B inh 2.0%.
COc1ccc2cc(CCNC(=O)c3c(-c4ccccc4Cl)noc3C)c(=O)[nH]c2c1 was read as HSD17B inh 25.1µM*.
For Cc1ccc2c(C(=O)CN3CCCCC3CCO)c(C)[nH]c2c1 (stereo not drawn) the results were HSD17B inh -13.6%.
Screening CCCNc1ncnc2nc[nH]c12 returned HSD17B inh 5.8%.
For CCc1ccc2[nH]c(=O)c(CN(CCCN3CCOCC3)C(=O)Nc3ccc(F)cc3)cc2c1 the results were HSD17B inh 25.1µM*.
For COc1ccc(-c2coc3cc(OC(C)=O)cc(OC(C)=O)c3c2=O)cc1 the results were HSD17B inh -2.8%.

Gathered by group, the entries above with four or more nitrogen atoms
`O=C(NCc1ccccc1)NC1(C(=O)N2CCN(c3ncccn3)CC2)CCCCC1` gave HSD17B inh 3.3%.
Screening CCCNc1ncnc2nc[nH]c12 returned HSD17B inh 5.8%.
For CCc1ccc2[nH]c(=O)c(CN(CCCN3CCOCC3)C(=O)Nc3ccc(F)cc3)cc2c1 the results were HSD17B inh 25.1µM*.

(next part)
`C/C(NC1CCCCC1)=C(/C#N)C(=O)NCCN1CCOCC1` gave HSD17B inh -4.2%.
For Cc1ccc(N(CC(=O)NC2CCCCCC2)S(=O)(=O)c2c(C)nn(C)c2C)cc1 the results were HSD17B inh 3.7%.
Screening O=C(Nc1nc2c(s1)CCCC2)C1CCCN1C(=O)c1cccs1 (stereo not drawn) returned HSD17B inh -2.0%.
`Cn1ccnc1SCC(=O)Nc1ccc2c(c1)COC2=O` gave HSD17B inh -4.1%.
Screening N#Cc1ccc(C(c2nnnn2CCc2ccccc2)N2CCCCCC2)cc1 (stereo not drawn) returned HSD17B inh -6.3%.
Screening O=C1CC(N2CCN(C(c3ccccc3)c3ccccc3)CC2)C(=O)N1 (stereo not drawn) returned HSD17B inh 5.3%.
CC1=C(C)[N+](=O)C2CCCCC2N1[O-] (stereo not drawn) was read as HSD17B inh -11.3%.
Screening COc1ccc(NC(=O)N2CCCC3(CCN(C(=O)c4ccncc4)CC3)C2)cc1 returned HSD17B inh -2.5%.
CCNc1cc2n(c(=O)n1)CCc1cc(OC)c(OC)cc1-2 was read as HSD17B inh 25.1µM*.
`CC(=O)C1=C(C)NC(=O)NC1c1cc(Br)ccc1OCC(N)=O` (stereo not drawn) gave HSD17B inh inconclusive.
For Cc1cc(C)cc(NC(=O)CCN2CC(C)OC(C)C2)c1 (stereo not drawn) the results were HSD17B inh -4.3%.
Screening CN1CCN(c2ncc3ncc(=O)n(Cc4cccs4)c3n2)CC1 returned HSD17B inh -2.0%.
For COc1ccc(N2CCN(C3CC(=O)N(C)C3=O)CC2)cc1 (stereo not drawn) the results were HSD17B inh -0.7%.
CCCCC(CC)COCCCN (stereo not drawn) was read as HSD17B inh 1.3%.
For COC(=O)c1ccc(CSc2nncn2C)cc1 the results were HSD17B inh -10.1%.
Screening COC(=O)c1ccc(NC(=O)CCN2CCN(c3ccccc3)CC2)cc1 returned HSD17B inh 2.4%.
C=CCSc1nnc(NC(=O)CSc2nc(CCC)cc(=O)[nH]2)s1 was read as HSD17B inh -12.8%.
For c1ccc(-c2onc3cc4c(cc23)OCCO4)cc1 the results were HSD17B inh 20µM*.
For COCCCNC(=O)c1ccc(CNS(=O)(=O)c2ccc(NC(C)=O)cc2)cc1 the results were HSD17B inh 15.2%.
`COC(=O)c1ccccc1N(Cc1ccccc1)S(C)(=O)=O` gave HSD17B inh 1.0%.
For Nc1c(S(=O)(=O)c2cccs2)c2nc3ccccc3nc2n1Cc1ccc2c(c1)OCO2 the results were HSD17B inh 12.6µM*.
Screening NS(=O)(=O)c1ccc(CNC(=O)C2CCCCC2)cc1 returned HSD17B inh 3.0%.
`Cc1cccc(-n2c(=O)[nH]c3c(C(N)=O)nc(-c4ccccc4Cl)nc32)c1` gave HSD17B inh 25.1µM*.
Screening CC(=O)OCC1OC(C#Cc2ccc(C(C)(C)C)cc2)C=CC1OC(C)=O (stereo not drawn) returned HSD17B inh -9.5%[11.4 µM].
`C=CCc1cccc(C2C(C)CCC3C(=O)N4C(CCC(C)C4c4cccc(CC=C)c4)C(=O)N32)c1` (stereo not drawn) gave HSD17B inh 5.8%[11.4 µM].
`Cc1nnc(NC(=O)CSc2ccccn2)s1` gave HSD17B inh -11.3%.
Screening CCOC(=O)C(C)Sc1nc2c([nH]c3ccccc32)c(=O)n1C (stereo not drawn) returned HSD17B inh -0.3%.
O=C1[C@H]2[C@H]3[C@H](O)[C@H](O)C/C(=N/OC[C@@H](O)COCc4ccco4)[C@H]3CC[C@@H]2C(=O)N1Cc1ccc2c(c1)OCO2 was read as HSD17B inh 1.0%[11.4 µM].
Screening CCOc1ccccc1NC(=O)CSc1nnc(CNC(=O)COc2ccc(Cl)cc2)o1 returned HSD17B inh 0.4%.
O=C(COC(=O)C1CC2C=CC1C2)Nc1ccc2c(c1)OC(F)(F)O2 (stereo not drawn) was read as HSD17B inh -5.6%.
For Cc1ccc(O)c(-c2cc(C(F)(F)C(F)F)nc(-c3ccccc3)n2)c1 the results were HSD17B inh 2.0%.
`COc1ccccc1-c1nnc(NC(=O)c2ccc(S(=O)(=O)N(C)Cc3ccccc3)cc2)o1` gave HSD17B inh -5.0%.
COc1ccc(CCNc2oc(Cc3cccc4ccccc34)nc2C#N)cc1OC was read as HSD17B inh -11.3%.
For CCCOc1ccccc1Nc1nnc(C)c(=O)[nH]1 the results were HSD17B inh 9.3%.
For Cc1c(C(=O)N2CCOCC2)[nH]c2ccc(OCc3ccccc3)cc12 the results were HSD17B inh inconclusive.
COc1ccc(NC(=O)N2CCC3(CC2)CCN(C(=O)c2cccc(F)c2)CC3)cc1 was read as HSD17B inh -3.8%.
CSC(N)=NCCCC(N)C(=O)O (stereo not drawn) was read as HSD17B inh 5.4%.
`CCOC(=O)N1CCN(C(=O)c2ccc(CS(=O)(=O)c3c(Cl)cccc3Cl)o2)CC1` gave HSD17B inh 1.9%.
For Cc1ccc(-c2nnnn2CS(=O)(=O)c2ccccc2)cc1 the results were HSD17B inh -3.8%.
Screening O=C(Nc1ccc(Cl)cn1)c1cccc(F)c1 returned HSD17B inh 10.1%.
For CCN(CC)c1ccc(/C=N/NC(=O)c2ccc(O)cc2)cc1 the results were HSD17B inh 15.8µM*.
`CC(C)(C)NC(=O)CSc1nnc(-c2ccncc2)n1Cc1ccccc1` gave HSD17B inh 8.1%.
CC(C)NC(=O)N1CCC2(CC1)CCN(C(=O)c1cnccn1)CC2 was read as HSD17B inh 7.6%.
COc1ccccc1CN1CC[C@@]2(CCCN(C(=O)c3cccc(F)c3)C2)C1 was read as HSD17B inh 14.1%.
`CC(NC(=O)c1cccc(F)c1)C(c1cccs1)N1CCN(C)CC1` (stereo not drawn) gave HSD17B inh 6.0%.
Screening CNc1nnc(-c2ccncc2)s1 returned HSD17B inh 25.1µM*.
COCC(=O)N(Cc1cc2ccc(C)cc2[nH]c1=O)c1ccc(OC)cc1 was read as HSD17B inh -16.6%.
Screening CCCc1cc(=O)[nH]c(SCC(=O)N(C)C2CCS(=O)(=O)C2)n1 (stereo not drawn) returned HSD17B inh -18.8%.
COC(=O)c1cnn2c3c(c(C)nc12)CCCC3 was read as HSD17B inh 31.6µM*.
O=C(CSc1nnc(Cc2ccccc2)o1)NC1CCCCC1 was read as HSD17B inh 4.1%.
Screening COc1ccc(OC)c2[nH]c(=O)c(CCNS(=O)(=O)c3ccc(Cl)cc3)cc12 returned HSD17B inh -28.0%.
Screening COc1ccc(-c2nc(C(=O)N3CCN(C)CC3)sc2-c2ccc(OC)cc2)cc1 returned HSD17B inh 31.6µM*.
Screening Cc1csc(SCC(=O)c2ccc(S(=O)(=O)N3CCOCC3)cc2)n1 returned HSD17B inh -29.7%.
Screening Cc1ccc(C)c(N2CCN(C(=O)CC3Sc4ccccc4NC3=O)CC2)c1 (stereo not drawn) returned HSD17B inh -9.0%.
`COc1ccc(N(CC(=O)NCc2ccc3c(c2)OCO3)S(=O)(=O)c2c(C)nn(C)c2C)cc1` gave HSD17B inh 1.4%.
CCOC(=O)C1=C(C)Nc2ccccc2N=C1NC(=O)c1cccc(S(=O)(=O)N(C)C)c1 was read as HSD17B inh -6.9%.
For O=C(NCCSc1ccccc1)c1ccco1 the results were HSD17B inh 5.7%.
`CCN(CC(=O)Nc1ccccc1C(=O)OC)S(=O)(=O)c1ccc(OC)cc1` gave HSD17B inh inconclusive.
COc1cc(OC)cc(C(=O)Nc2ccc(-n3cnnn3)c(C)c2)c1 was read as HSD17B inh -22.4%.
CCCCC(=O)Nc1ccc(N2CCN(S(C)(=O)=O)CC2)cc1 was read as HSD17B inh 17.6%.
`O=C(CN1C(=O)NC(Cc2ccccc2)C1=O)Nc1ccccc1` (stereo not drawn) gave HSD17B inh -8.4%.
Screening Cn1c(C(=O)NCCCN2CCN(c3ccccc3F)CC2)cc2c(=O)[nH]c3ccccc3c21 returned HSD17B inh inconclusive.
`CCN(CC)S(=O)(=O)c1cccc(-c2nnc(SCC(=O)NC)n2CCc2ccccc2)c1` gave HSD17B inh 6.9%.
For CCOc1ccc(C(=O)N(CN2CCCC2=O)c2ccc(C)cc2)cc1 the results were HSD17B inh -10.1%.
O=C(CN1C2=NCCCN2c2ccccc21)c1ccc(Br)s1 was read as HSD17B inh -1.8%.
`OC[C@H]1NC[C@H](O)[C@@H](O)[C@H]1O` gave HSD17B inh -15.1%.
For CCN(C(=O)CCN1C(=O)c2ccccc2C1=O)C1CCCCC1 the results were HSD17B inh 6.6%.
Screening CCCn1c(=O)c2ccccc2n2c(SCC(=O)c3cc(C)n(CCOC)c3C)nnc12 returned HSD17B inh 1.2%.
Screening Cc1ccc(S(=O)(=O)N[C@H]2COC(=O)C/C=C\[C@H](C)[C@@H](NS(=O)(=O)c3ccc(C)cc3)COC(=O)C/C=C\[C@@H]2C)cc1 returned HSD17B inh 2.2%[11.4 µM].
For CCOC(=O)Nc1cc(OC)c(OC)cc1Cc1nccc2cc(OC)c(OC)cc12 the results were HSD17B inh 6.6%.
CNC(=O)CSc1nnc(-c2cc3c(C)nn(-c4ccccc4)c3s2)n1C was read as HSD17B inh -0.2%.
`CCC(O)(CCN1CCCCC1)c1ccccc1` (stereo not drawn) gave HSD17B inh 13.3%.
For COC(=O)c1ccc(C(c2c(N)n(Cc3ccccc3)c(=O)n(C)c2=O)N2CCOCC2)cc1 (stereo not drawn) the results were HSD17B inh -5.5%.
`CC(C)(C)NC(=O)COC(=O)Cc1ccc(Cl)cc1` gave HSD17B inh -0.4%.
Screening CCOC(=O)N1CCC(NC(=O)c2cc(S(=O)(=O)N3CCCC3)cn2C)CC1 returned HSD17B inh 4.7%.

Compounds from the list above that contain a tert-butyl group:
Screening CC(=O)OCC1OC(C#Cc2ccc(C(C)(C)C)cc2)C=CC1OC(C)=O (stereo not drawn) returned HSD17B inh -9.5%[11.4 µM].
`CC(C)(C)NC(=O)CSc1nnc(-c2ccncc2)n1Cc1ccccc1` gave HSD17B inh 8.1%.
`CC(C)(C)NC(=O)COC(=O)Cc1ccc(Cl)cc1` gave HSD17B inh -0.4%.

Structural class, the entries above containing a cyano group (3)
`C/C(NC1CCCCC1)=C(/C#N)C(=O)NCCN1CCOCC1` gave HSD17B inh -4.2%.
Screening N#Cc1ccc(C(c2nnnn2CCc2ccccc2)N2CCCCCC2)cc1 (stereo not drawn) returned HSD17B inh -6.3%.
COc1ccc(CCNc2oc(Cc3cccc4ccccc34)nc2C#N)cc1OC was read as HSD17B inh -11.3%.

Additional compounds:
COc1ccc(C)cc1-n1nnnc1SCC(=O)N1CCC(C(=O)Nc2nccs2)CC1 was read as HSD17B inh -5.5%.
O=C(CN1CCCCC1)NCCNC(=O)CN1CCCCC1 was read as HSD17B inh 12.0%.
Screening CCC(=O)[C@@]1(O)C(=O)N2C(=C3C(=O)OCCC31)N(Cc1ccccc1)C(C)=C(C(=O)OC)C2c1ccccc1 (stereo partly drawn) returned HSD17B inh 7.3%[11.4 µM].
`COc1ccc(CN2C(=O)c3ccccc3C2C(=O)NCc2cccnc2)c(OC)c1` (stereo not drawn) gave HSD17B inh 1.1%.
For CCN(CC)c1ccc(C(=O)n2cnc3ccccc32)cc1 the results were HSD17B inh inconclusive.
COc1ccc(C(OC(=O)c2ccco2)C(=O)NCc2ccco2)cc1 (stereo not drawn) was read as HSD17B inh 17.5%.
For CN1CCN(c2ccc(Cl)cc2NC(=O)c2nn(-c3ccccc3)c(=O)c3ccccc23)CC1 the results were HSD17B inh 2.3%.
`COc1ccc(-c2nc(C#N)c(NCc3ccccc3Cl)o2)cc1` gave HSD17B inh 25.1µM*.

Screening results deposited in PubChem by National Center for Advancing Translational Sciences (NCATS).
